Screening data deposited in PubChem BioAssay by Broad Institute.
FGF22 binding = binders of recombinant human FGF22 by thermal shift; calls only at 9.99 µM; 340,000 tested, 1.5% active; Q9HCT0; AID 651658; SYPRO orange fluorescence; percent of sucrose octasulfate shift, DMSO zero;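 active means melting point raised past a set limit in the mean and every replicate; three in four hits are not shown here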
Target sequence (Q9HCT0 whole entry, looked up): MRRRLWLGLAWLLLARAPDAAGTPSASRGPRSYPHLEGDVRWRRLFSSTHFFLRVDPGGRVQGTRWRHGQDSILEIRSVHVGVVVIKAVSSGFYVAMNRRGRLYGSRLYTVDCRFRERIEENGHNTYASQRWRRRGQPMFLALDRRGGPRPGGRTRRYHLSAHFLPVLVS
MLL AF4-AF9 inh = inhibitors of human MLL-AF4/AF9 interaction; inhibition, % at 10 µM; 350,000 tested, 0.47% active; AlphaScreen, biotin-AF4 peptide binding to FLAG-AF9; P42568;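 active means every replicate reaching a set inhibition limit, whatever the replicate mean, cut at about 25% in these data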;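 further: 0% = plate neutral control median and 100% = total signal loss; the record names both 10 and 1 µM as test concentration; the first replicate is given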
Target sequence (P42568 whole entry, looked up): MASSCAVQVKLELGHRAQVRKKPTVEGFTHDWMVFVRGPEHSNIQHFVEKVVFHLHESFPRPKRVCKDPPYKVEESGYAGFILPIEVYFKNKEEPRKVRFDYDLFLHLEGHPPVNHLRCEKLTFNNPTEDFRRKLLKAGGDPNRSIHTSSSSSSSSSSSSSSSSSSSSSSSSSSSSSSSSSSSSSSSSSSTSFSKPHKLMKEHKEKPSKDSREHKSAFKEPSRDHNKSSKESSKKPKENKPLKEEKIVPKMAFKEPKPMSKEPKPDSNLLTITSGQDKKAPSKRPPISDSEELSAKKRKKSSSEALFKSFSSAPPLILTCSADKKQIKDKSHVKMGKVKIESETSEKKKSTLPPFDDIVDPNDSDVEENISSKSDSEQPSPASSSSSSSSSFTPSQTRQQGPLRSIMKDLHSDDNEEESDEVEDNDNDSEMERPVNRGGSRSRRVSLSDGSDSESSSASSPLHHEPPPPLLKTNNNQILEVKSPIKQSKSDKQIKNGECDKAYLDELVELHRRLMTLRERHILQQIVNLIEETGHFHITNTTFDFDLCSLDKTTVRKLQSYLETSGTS
* hit, by the source's call; i = inactive; . = no result given; + = active, no number.

SMILES | FGF22 binding | MLL AF4-AF9 inh
C[C@@H]1CN([C@H](C)CO)C(=O)c2cc(NS(C)(=O)=O)ccc2O[C@H]1CN(C)S(=O)(=O)c1ccc(Cl)cc1 | i | -0.4
COc1ccc(S(=O)(=O)N(C)C[C@H]2OCCCC[C@@H](C)Oc3ccc(NS(=O)(=O)c4ccccc4)cc3C(=O)N([C@@H](C)CO)C[C@H]2C)cc1 | i | 0.8
O=C(C[C@@H]1CC[C@@H]2[C@H](COC[C@H](O)CN2S(=O)(=O)c2ccccc2)O1)Nc1ccc(-c2ccccc2)cc1 | i | -3.7
Cc1ccc(S(=O)(=O)NCc2ccc3c(c2)OCO3)cc1 | i | -7.8
CNC[C@@H]1OCCCC[C@@H](C)Oc2ccc(NS(=O)(=O)c3cccs3)cc2C(=O)N([C@@H](C)CO)C[C@H]1C | i | -5.2
COCC(=O)N1CC2(C1)[C@H](c1ccccc1)[C@@H](CO)N2CCC(F)(F)F | i | -2.2
Cc1noc(C)c1NC(=O)N(C)C[C@@H]1Oc2ncc(/C=C/c3ccccc3)cc2C(=O)N([C@@H](C)CO)C[C@H]1C | i | -2.8
C[C@H]1CN([C@@H](C)CO)S(=O)(=O)c2ccc(C3=CCCCC3)cc2O[C@H]1CN(C)Cc1cncnc1 | i | -16.3
O=C(c1ccccc1)N1CC[C@H]2[C@H](CO)Nc3ccc(-c4ccccc4F)cc3[C@H]21 | i | -3.9
C[C@@H]1CN([C@@H](C)CO)S(=O)(=O)c2ccc(C#CC(C)(C)O)cc2O[C@@H]1CN(C)Cc1ccccc1 | i | 5.5
CCNC(=O)[C@@H]1[C@@H](CO)[C@@H]2Cn3c(ccc(-c4ccncc4)c3=O)[C@@H]2N1Cc1cc(F)ccc1F | i | -0.7
CC(C)NC(=O)Nc1ccc2c(c1)C(=O)N([C@H](C)CO)C[C@@H](C)[C@@H](CN(C)C(=O)Nc1ccc(C(F)(F)F)cc1)O2 | i | -2.6
COc1cccc(-c2ccc3c(c2)[C@@H]2[C@@H](CCN2S(=O)(=O)c2ccccc2C)[C@@H](CO)N3)c1 | i | 1.2
O=C(C[C@@H]1CC[C@H](NC(=O)c2ccccc2)[C@H](CO)O1)NCCc1ccncc1 | i | -1.9
O=C(C[C@@H]1CC[C@@H](NC(=O)C2CCOCC2)[C@H](CO)O1)NCc1ccccc1Cl | i | 1.3

Exported as labelled records: entries from further up
C[C@@H]1CN([C@H](C)CO)C(=O)c2cc(NS(C)(=O)=O)ccc2O[C@H]1CN(C)S(=O)(=O)c1ccc(Cl)cc1
  FGF22 binding: i
  MLL AF4-AF9 inh: -0.4

CC(C)NC(=O)Nc1ccc2c(c1)C(=O)N([C@H](C)CO)C[C@@H](C)[C@@H](CN(C)C(=O)Nc1ccc(C(F)(F)F)cc1)O2
  FGF22 binding: i
  MLL AF4-AF9 inh: -2.6

CCNC(=O)[C@@H]1[C@@H](CO)[C@@H]2Cn3c(ccc(-c4ccncc4)c3=O)[C@@H]2N1Cc1cc(F)ccc1F
  FGF22 binding: i
  MLL AF4-AF9 inh: -0.7

C[C@H]1CN([C@@H](C)CO)S(=O)(=O)c2ccc(C3=CCCCC3)cc2O[C@H]1CN(C)Cc1cncnc1
  FGF22 binding: i
  MLL AF4-AF9 inh: -16.3

Next entries
SMILES | FGF22 binding | MLL AF4-AF9 inh
C[C@H]1CN([C@@H](C)CO)C(=O)Cc2cc(NC(=O)Cn3cnnn3)ccc2O[C@H]1CN(C)Cc1ccccc1 | i | 0.0
CCCNC(=O)N1[C@H](C#N)[C@H](c2ccccc2-c2ccc(C)cc2)[C@@H]1CO | i | 0.9
CCC(=O)NC[C@H]1[C@@H](c2ccc(-c3ccccc3)cc2)[C@H](CO)N1C(=O)C1CC1 | i | 1.0
CO[C@@H](CN(C)C(=O)c1cnccn1)[C@H](C)CN([C@@H](C)CO)S(=O)(=O)c1ccc(C)cc1 | i | -0.1
COc1ccc(NC(=O)Nc2ccc3c(c2)[C@H]2C[C@H](CC(=O)NCCc4ccccc4)O[C@@H](CO)[C@H]2O3)cc1 | i | -9.3
C[C@@H]1CN([C@@H](C)CO)C(=O)Cc2cc(NC(=O)Nc3ccccc3)ccc2O[C@H]1CN(C)CC1CC1 | i | 10.6
CC(=O)N[C@@H]1CC[C@@H](CC(=O)NCc2ccc(Cl)cc2)O[C@H]1CO | i | -10.9
CN(C)CC(=O)N1[C@H](C#N)[C@H](c2ccc(C#CC3CCCC3)cc2)[C@@H]1CO | i | 2.5
C/C=C/c1ccc2c(c1)O[C@@H](CN(C)C)[C@H](C)CN([C@@H](C)CO)S2(=O)=O | i | -1.9
O=C(Nc1ccccc1F)N[C@H]1CC[C@@H](CCNC(=O)C2CC2)O[C@@H]1CO | i | -14.9
O=C(N[C@H]1CC[C@@H](CCn2cc(C3(O)CCCC3)nn2)O[C@H]1CO)C1CCCC1 | i | -0.5
O=C(Nc1cccc(Cl)c1)N[C@H]1CC[C@@H](CCNC(=O)C2CC2)O[C@@H]1CO | i | 0.7
Cc1noc(C)c1NC(=O)Nc1ccc2c(c1)C(=O)N([C@@H](C)CO)C[C@H](C)[C@H](CN(C)Cc1ccc(C(F)(F)F)cc1)OCCCC[C@@H](C)O2 | i | 5.7
CO[C@@H]1CN(C)C(=O)c2cc(NC(=O)NC(C)C)ccc2OC[C@H](C)N(C(=O)CC2CC2)C[C@H]1C | i | -1.0
COc1ccc(S(=O)(=O)N(C)C[C@H]2OCCCC[C@@H](C)Oc3ccc(NC(=O)c4ccncc4)cc3C(=O)N([C@@H](C)CO)C[C@H]2C)cc1 | i | -0.7
Cc1noc(C)c1NC(=O)Nc1cccc2c1O[C@H](CN(C)C)[C@@H](C)CN([C@@H](C)CO)C2=O | i | -0.7
COc1ccc(NC(=O)Nc2ccc3c(c2)CC(=O)N([C@@H](C)CO)C[C@H](C)[C@@H](CN(C)CC2CC2)O3)cc1 | i | 4.3
COc1ccc(NC(=O)N(C)C[C@H]2OCc3ccccc3-c3ccccc3C(=O)N([C@H](C)CO)C[C@@H]2C)cc1 | i | -2.3
Cc1noc(C)c1S(=O)(=O)Nc1ccc2c(c1)CC(=O)N([C@H](C)CO)C[C@@H](C)[C@H](CN(C)Cc1ccc(C(F)(F)F)cc1)O2 | i | 1.9
CCC(=O)Nc1ccc2c(c1)C(=O)N(C)C[C@@H](OC)[C@@H](C)CN(C(=O)Cc1cccnc1)[C@H](C)CO2 | i | 2.5
CC(C)(C)[S@](=O)N1Cc2cc(C(=O)N[C@@H]3CCN(Cc4ccccc4)C3)nc(-c3cccc(-c4cccnc4)c3)c2[C@@H]1CCO | + | 3.1
CN(C)c1ccc2c(c1)[C@@H]1C[C@H](CC(=O)O)O[C@H](CO)[C@@H]1O2 | i | -1.8
Cc1ccc(S(=O)(=O)N(C)C[C@@H]2Oc3ccc(NC(=O)Nc4ccc5c(c4)OCO5)cc3C(=O)N([C@H](C)CO)C[C@H]2C)cc1 | i | 5.9
CCCC(=O)N1CCC2(CC1)CN(C(=O)C1CCC1)[C@H](CO)c1[nH]c3cc(OC)ccc3c12 | i | -1.3
O=C(CN1CCOCC1)NCC[C@H]1CC[C@@H](NC(=O)Nc2ccc(C(F)(F)F)cc2)[C@H](CO)O1 | i | 0.5
C[C@H](CO)N1C[C@H](C)[C@@H](CN(C)Cc2ccncc2)Oc2ccc(NC(=O)CCC(F)(F)F)cc2C1=O | i | -8.4
CC(C)NC(=O)N(C)C[C@H]1OCCCC[C@@H](C)Oc2ccc(NC(=O)CCC(F)(F)F)cc2C(=O)N([C@H](C)CO)C[C@@H]1C | i | -3.4
C[C@@H]1CN([C@H](C)CO)C(=O)c2cccc(NS(=O)(=O)c3ccc(F)cc3)c2O[C@@H]1CN(C)C(=O)NC1CCCCC1 | i | 0.4
CCCNC(=O)[C@@H]1[C@@H](CO)[C@@H]2Cn3c(ccc(C4=CCCC4)c3=O)[C@H]1N2C(=O)CC1CC1 | i | -0.4
C[C@H]1CCCCO[C@H](CN(C)Cc2ccc(Cl)c(Cl)c2)[C@@H](C)CN([C@@H](C)CO)C(=O)c2cc(NC(=O)CCC(F)(F)F)ccc2O1 | i | -8.5

4 entries already listed, sorted by their value in MLL AF4-AF9 inh, largest number first:
SMILES | FGF22 binding | MLL AF4-AF9 inh
Cc1ccc(S(=O)(=O)N(C)C[C@@H]2Oc3ccc(NC(=O)Nc4ccc5c(c4)OCO5)cc3C(=O)N([C@H](C)CO)C[C@H]2C)cc1 | i | 5.9
CC(C)(C)[S@](=O)N1Cc2cc(C(=O)N[C@@H]3CCN(Cc4ccccc4)C3)nc(-c3cccc(-c4cccnc4)c3)c2[C@@H]1CCO | + | 3.1
C[C@@H]1CN([C@H](C)CO)C(=O)c2cccc(NS(=O)(=O)c3ccc(F)cc3)c2O[C@@H]1CN(C)C(=O)NC1CCCCC1 | i | 0.4
CN(C)c1ccc2c(c1)[C@@H]1C[C@H](CC(=O)O)O[C@H](CO)[C@@H]1O2 | i | -1.8

(more compounds)
SMILES | FGF22 binding | MLL AF4-AF9 inh
C[C@@H]1CN([C@H](C)CO)C(=O)Cc2cc(NS(=O)(=O)c3ccc(Cl)cc3)ccc2O[C@H]1CN(C)C(=O)NC1CCCCC1 | i | -2.7
C[C@H](CO)N1C[C@H](C)[C@H](CN(C)S(=O)(=O)c2ccsc2)OCc2ccccc2-c2ccccc2C1=O | i | 3.2
COc1ccc(S(=O)(=O)Nc2ccc3c(c2)C(=O)N([C@H](C)CO)C[C@H](C)[C@H](CN(C)S(C)(=O)=O)OCCCC[C@H](C)O3)cc1 | i | 1.9
COc1ccc(NC(=O)N(C)C[C@@H]2Oc3ccc(NC(=O)Nc4cccc5ccccc45)cc3C(=O)N([C@H](C)CO)C[C@@H]2C)cc1 | i | 4.9
COC(=O)C1=C(C)N(C)C(=NCc2ccc3c(c2)OCO3)NC1c1cccc(F)c1 (stereo not given) | . | -3.3
CC(C)CC#Cc1ccc2c(c1)O[C@H](CN(C)C(=O)CC1CC1)[C@@H](C)CN([C@@H](C)CO)S2(=O)=O | i | 6.1
C/C=C/c1ccc2c(c1)O[C@@H](CN(C)C)[C@H](C)CN([C@H](C)CO)S2(=O)=O | i | -1.7
COC(=O)[C@H]1[C@H](CO)[C@H]2Cn3c(ccc(-c4ccncc4)c3=O)[C@H]2N1CC1CCCCC1 | i | 1.4
O=C(C[C@@H]1CC[C@H]2[C@@H](COC[C@@H](O)CN2Cc2cccc(C(F)(F)F)c2)O1)NCCc1ccccc1 | i | -10.1
CNC[C@H]1Oc2c(cccc2N(C)C)C(=O)N([C@@H](C)CO)C[C@H]1C | i | -2.8
C[C@@H]1CN([C@@H](C)CO)S(=O)(=O)c2ccc(-c3cccc(C#N)c3)cc2O[C@H]1CN(C)Cc1ccccn1 | i | 1.2
CC(=O)N1[C@H](CN(C(=O)c2ccccc2)C(C)C)[C@@H](c2ccccc2)[C@@H]1CO | i | -0.2
CCS(=O)(=O)Nc1ccc2c(c1)C(=O)N(C)[C@@H]1CC[C@@H](CC(=O)NC3CCCCC3)O[C@@H]1CO2 | i | -0.8
O=C(C[C@@H]1CC[C@H]2[C@@H](COC[C@@H](O)CN2Cc2cccc(F)c2)O1)NCc1cccc(F)c1 | i | 1.9
C[C@H]1CN([C@@H](C)CO)C(=O)c2cc(NC(=O)Cc3cn(C)c4ccccc34)ccc2O[C@H]1CN(C)Cc1ccc(-c2ccccc2)cc1 | i | 0.8
Cc1ccc(S(=O)(=O)N[C@@H]2CC[C@H](CC(=O)NCCN3CCCCC3)O[C@@H]2CO)cc1 | i | -1.4
CO[C@H]1CN(C)C(=O)c2ccc(NC(=O)c3ccccc3F)cc2OC[C@@H](C)N(CC2CC2)C[C@@H]1C | i | 0.2
C[C@@H]1CCCCO[C@@H](CN(C)C(=O)CCCN(C)C)[C@H](C)CN([C@H](C)CO)C(=O)c2cc(N(C)C)ccc2O1 | i | 3.6
C[C@@H]1CN([C@@H](C)CO)C(=O)Cc2cc(NS(=O)(=O)c3cccs3)ccc2O[C@@H]1CN(C)Cc1ccc(Cl)c(Cl)c1 | i | -0.9
O=C(N[C@@H]1C=C[C@H](CC(=O)N2CCCCC2)O[C@@H]1CO)c1ccccn1 | i | -1.7
C[C@@H]1CN([C@H](C)CO)C(=O)c2cccc(NC(=O)C3CCOCC3)c2O[C@H]1CN(C)Cc1ccc(C(=O)O)cc1 | i | 2.3
O=C(c1ccc2c(c1)OCO2)N1C[C@H]2[C@@H](c3ccccc31)[C@H](CO)N2Cc1ccccc1Cl | i | 1.1
C[C@@H]1CCCCO[C@H](CN(C)C(=O)Nc2ccccc2)[C@@H](C)CN([C@@H](C)CO)C(=O)c2cc(NC(=O)c3ccccc3)ccc2O1 | i | 3.4
CNC[C@H]1Oc2ccc(NC(=O)CCN3CCOCC3)cc2CC(=O)N([C@H](C)CO)C[C@H]1C | i | -3.3
CC(C)CC#Cc1ccc2c(c1)O[C@@H](CN(C)C(=O)c1ccccc1)[C@@H](C)CN([C@H](C)CO)S2(=O)=O | i | 3.0
COc1ccc(CN(C)C[C@H]2Oc3c(NC(=O)CCCCCC(=O)Nc4ccccc4N)cccc3C(=O)N([C@H](C)CO)C[C@@H]2C)cc1 | i | -1.2
COC(=O)C[C@H]1CC[C@@H]2[C@H](COC[C@@H](O)CN2S(=O)(=O)c2ccc(F)cc2)O1 | i | -3.7
C[C@@H](O)C#Cc1ccc2c(c1)O[C@@H](CN(C)C(=O)Nc1ccccc1)[C@@H](C)CN([C@@H](C)CO)S2(=O)=O | i | -0.8
O=C(C[C@H]1CC[C@H]2[C@@H](COC[C@@H](O)CN2CC2CCOCC2)O1)NCc1ccc(Cl)cc1 | i | -2.6
C[C@@H]1CN([C@H](C)CO)C(=O)c2cc(NS(=O)(=O)c3ccccc3)ccc2O[C@@H](C)CCCCO[C@@H]1CN(C)S(=O)(=O)c1ccc(F)cc1 | i | -1.7
C[C@H](CO)N1C[C@H](C)[C@H](CN(C)C)Oc2cc(C#CC(C)(C)O)ccc2S1(=O)=O | i | -1.2
C[C@@H]1CCCCO[C@@H](CN(C)Cc2ccc3c(c2)OCO3)[C@H](C)CN([C@@H](C)CO)C(=O)c2cc(N(C)C)ccc2O1 | i | 12.4

These rows are one share of the data; count on the stated rates, not on these rows.
